# Assay outcomes (PubChem BioAssay)
# GIRK2 act: opens human GIRK2 potassium channels; P48051; HEK293-GIRK2 thallium flux, Thallos fluorescence; hit rate 0.05% among 63,000; calls only for hits at 25 µM;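 active = among the strongest 0.2% of first-round signals and kept after retests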;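 note: first round at about 10 µM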
# Target sequence (P48051 whole entry, looked up): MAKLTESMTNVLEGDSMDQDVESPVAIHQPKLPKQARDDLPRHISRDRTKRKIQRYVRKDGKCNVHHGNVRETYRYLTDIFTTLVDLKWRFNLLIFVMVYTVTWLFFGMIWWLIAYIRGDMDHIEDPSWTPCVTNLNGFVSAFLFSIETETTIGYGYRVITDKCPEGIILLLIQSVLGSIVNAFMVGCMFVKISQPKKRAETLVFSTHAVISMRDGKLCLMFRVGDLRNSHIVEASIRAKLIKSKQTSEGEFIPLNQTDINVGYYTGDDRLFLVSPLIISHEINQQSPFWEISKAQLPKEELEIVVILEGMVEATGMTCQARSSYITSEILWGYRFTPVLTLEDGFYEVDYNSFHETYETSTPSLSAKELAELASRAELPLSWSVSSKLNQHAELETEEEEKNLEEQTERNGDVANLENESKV
# Calls only; i = inactive. A portion of the library, so the mix of outcomes need not match the whole.
# Start of the listing, in advance, two compounds:
SMILES | GIRK2 act
COc1ccc(CNC(=O)CCn2c(=O)[nH]c3ccccc3c2=O)cc1 | i
Cc1ccc(CN(c2ccc(C(C)C)cc2)S(=O)(=O)c2cccn3c(C)nnc23)cc1 | i

# The list itself, repeating the preview:
SMILES | GIRK2 act
COc1ccc(CNC(=O)CCn2c(=O)[nH]c3ccccc3c2=O)cc1 | i
Cc1ccc(CN(c2ccc(C(C)C)cc2)S(=O)(=O)c2cccn3c(C)nnc23)cc1 | i
O=C1C2N=NN(Cc3nc(-c4cccc(C(F)(F)F)c4)no3)C2C(=O)N1c1ccc2c(c1)CCC2 (centres undefined) | i
CC(Oc1ccccc1)C(=O)N1CCc2nc(NC(=O)c3ccoc3)sc2C1 (centres undefined) | i
COc1ccccc1NC(=O)Nc1ccc(CC(=O)NC2CC2)cc1 | i
Cc1cc(C(=O)NCCCn2cccc2)c(C)o1 | i
Cc1cn2c3c(=O)n(CCCc4ccccc4)c(=O)n(C)c3nc2n1CCCn1ccnc1 | i
COc1cc2c(cc1OC)CN(CC(O)COCC1CC3CCC1C3)CC2 (centres undefined) | i
Cc1ccc(Cl)cc1NC(=O)C(=O)NCCN1CCOCC1 | i
Cc1cc(C)nc(Nc2nc(C(=O)NCc3ccc4c(c3)OCO4)cs2)n1 | i
CCCCn1c(=O)c2c(nc(-n3nc(C)c(C)c3C)n2CCOCC)n(C)c1=O | i
O=C(CCc1ccccc1)N(CCn1cccn1)c1nc2ccccc2s1 | i
CCC(C(=O)NCCOC)n1nc2c(-c3nc(C)no3)cccn2c1=O (centres undefined) | i
Cc1cc(CN2CCC(CNC(=O)C(=O)Nc3cccc(N4CCCCC4=O)c3)CC2)c(C)o1 | i
COc1cccc(N2CC(C)Cn3c2nc2c3c(=O)n(C/C=C/c3ccccc3)c(=O)n2C)c1 (centres undefined) | i
COCCN1COc2ccc3c(c2C1)O/C(=C\c1ccc(C)cc1)C3=O | i
COc1cc(NC(=O)CSc2cc(Oc3cc(C)cc(C)c3)ncn2)cc(OC)c1 | i
NC(=O)c1nsc2c(=O)n(CC(=O)N3CCN(c4ccccc4F)CC3)cnc12 | i
CCOC(=O)N1CCC(NC(=O)Cn2ccn(-c3cc(C)cc(C)c3)c(=O)c2=O)CC1 | i
Cc1noc(-c2cccnc2SCC(=O)NC2CCCCC2)n1 | i
Cc1cc(C)n(-c2nc(CCNC(=O)Nc3cccc(Cl)c3)cs2)n1 | i
Cc1cc(C)n(-c2nc3c(c(=O)n(CC(N)=O)c(=O)n3C)n2Cc2ccccc2F)n1 | i
COc1ccccc1/C=C/C=C1\Oc2cc(OC(=O)N3CCOCC3)ccc2C1=O | i
Cc1sc2c(c1C)c(=O)nc1n2Cc2ccccc2-1 | i
COCCN(Cc1ccoc1)C(=O)Nc1ccc2c(c1)OCO2 | i
O=C(Nc1ccccc1)OC1CCCC(NC(=O)c2cnccn2)C1 (centres undefined) | i
CN1C(=O)C(C)(C)COc2cc(NC(=O)NCc3cccc4ccccc34)ccc21 | i
CS(=O)(=O)N1CCN(C(=O)Cc2csc(SCC(=O)Nc3ccc(F)cc3)n2)CC1 | i
Cc1ccc2nc(N(Cc3ccncc3)C(=O)c3cccc(S(=O)(=O)C(C)C)c3)sc2c1 | i
COC(=O)c1ccc(S(=O)(=O)NCC(O)c2ccoc2)cc1 (centres undefined) | i
CS(=O)(=O)C1CCN(S(C)(=O)=O)C1 (centres undefined) | i
COc1ccc(Cl)c(NC(=O)c2n[nH]n3c2nc(=O)c2ccccc23)c1 | i
COc1ccc(CNC(=O)Cn2nc3c(c2NC(=O)/C=C\c2ccc4c(c2)OCO4)CSC3)cc1 | i
COC(=O)c1ccccc1C(=O)N1CCC(Oc2ccccn2)CC1 | i
CCOc1ccccc1NC(=O)N1CCN(Cc2nnnn2-c2ccc(F)c(F)c2)CC1 | i
COc1ccccc1NC(=O)Cn1nc2c(SCc3ccccc3)nccn2c1=O | i
COc1ccc(-c2nc(-c3ccc(-c4cccc(Cl)c4)o3)[nH]c2-c2ccc(OC)cc2)cc1 | i
Cc1nn(C)c(C)c1S(=O)(=O)NCCc1ccsc1 | i
Cn1c(=O)c2cc(C(=O)N3CCCc4ccccc43)n(Cc3ccccc3)c2n(C)c1=O | i
CCc1ccc(N2C(=O)C3N=NN(CC(=O)Nc4ccc(Cl)cc4)C3C2=O)cc1 (centres undefined) | i
Cn1c(C(F)(F)F)nn(CCNC(=O)Nc2cccs2)c1=O | i
CC(C)NC(=O)C(C)n1nc(-c2ccc(F)cc2)ccc1=O (centres undefined) | i
CCc1ccc(S(=O)(=O)N(CC)c2ccccc2)cc1 | i
COc1ccc(OC)c(COCC(O)CN2CCN(c3ccc(F)cc3)CC2)c1 (centres undefined) | i
Cc1cccc(C)c1NC(=O)Cn1cccc(-c2nc(-c3ccc(Cl)cc3)no2)c1=O | i
N#Cc1c(C(F)(F)F)cc(-c2ccccc2)nc1SCCCC(=O)Nc1nccs1 | i
CCc1ccc(S(=O)(=O)N2CCN(CC(O)C3CC3)CC2)s1 (centres undefined) | i
O=C(CSCc1ccccc1)N1CCCC(COCc2ccccc2)C1 (centres undefined) | i
Cc1oc(-c2cccc([N+](=O)[O-])c2)cc1C(=O)Nc1ccccc1 | i
O=C(COc1ccccc1F)Nc1cnoc1 | i

# Further results.
SMILES | GIRK2 act
O=C1CCCN1c1cccc(NS(=O)(=O)Cc2ccc(F)cc2)c1 | i
O=C(/C=C/c1cccc(F)c1)Nc1ccc2c(c1)OCO2 | i
CCCS(=O)(=O)NCCNC(=O)c1ccc(NC(=O)C2CCCC2)cc1 | i
O=C(/C=C\c1ccc2c(c1)OCO2)Nc1c2c(nn1CC(=O)NCc1ccc(F)cc1)CSC2 | i
COc1ccc(-c2cn[nH]c2-c2ccc(O)cc2O)cc1 | i
COc1cccc(CNC(=O)Cn2nc3c(=O)n(-c4ccc(Br)cc4)ccn3c2=O)c1 | i
Cc1ccc(Cl)cc1NC(=O)N1CCCCC1 | i
CCc1ccc(-n2nnc3c(=O)n(Cc4nc(-c5ccc(OC)cc5)no4)cnc32)cc1 | i
CNC(=O)Cc1ccc(-n2c(=O)c3ccccc3n(Cc3cccc(C)c3)c2=O)cc1 | i
COc1ccc(CCNC(=O)C(=O)NCCC2CCCCN2S(=O)(=O)c2ccccc2)cc1 (centres undefined) | i
CCCOc1ccc(C2c3c(oc4cc(C)c(C)cc4c3=O)C(=O)N2CCN(C)C)cc1 (centres undefined) | i
O=C(c1cnn(-c2ccccc2)n1)N1CCC(c2nnc(-c3ccc(F)cc3)o2)CC1 | i
O=C1C2N=NN(Cc3nc(-c4cccc(Cl)c4)no3)C2C(=O)N1c1ccc(F)c(F)c1 (centres undefined) | i
COc1ccc(CC(=O)NCCNc2ccc(Nc3cccnc3)nn2)cc1 | i
Cc1nc2ccc3nc(NC(=O)Nc4cccs4)sc3c2s1 | i
CCCCc1ccc(NC(=O)c2cc3c(=O)n(C)c(=O)n(C)c3n2CCCOC)cc1 | i
COc1cc(/C=C2\SC(=S)N(c3cccc(C(F)(F)F)c3)C2=O)cc(OC)c1OC | i
COc1cc(OC)cc(C(=O)NC2CCN(c3ccc(-c4cccc(F)c4)nn3)CC2)c1 | i
O=C(NCC(F)(F)F)c1nnn(-c2ccc(Cl)cc2)n1 | i
CCC(=O)NCCc1nc2ccccc2n1Cc1ccc(Cl)cc1 | i
O=C(NCCn1nc(C2CC2)n(-c2ccccc2)c1=O)NCc1cccc2ccccc12 | i
CCOc1ccc(-c2cc(C(=O)NCc3ccc(C)cc3)no2)cc1 | i
Cc1nc(SCC(=O)Nc2ccc(Cl)cc2C(F)(F)F)cc(-c2ccccn2)n1 | i
CCOC(=O)CCn1c(=O)c2c(nc3n(-c4ccccc4)c(C)c(C)n23)n(C)c1=O | i
COCCn1c(C(=O)NC2CCCCCC2)cc2c(=O)n(C)c(=O)n(C)c21 | i

# Sorted by molecular weight (highest first): part of the list above.
SMILES | GIRK2 act
Cc1nc(SCC(=O)Nc2ccc(Cl)cc2C(F)(F)F)cc(-c2ccccn2)n1 | i
CCCOc1ccc(C2c3c(oc4cc(C)c(C)cc4c3=O)C(=O)N2CCN(C)C)cc1 (centres undefined) | i
CNC(=O)Cc1ccc(-n2c(=O)c3ccccc3n(Cc3cccc(C)c3)c2=O)cc1 | i
CCCS(=O)(=O)NCCNC(=O)c1ccc(NC(=O)C2CCCC2)cc1 | i
Cc1nc2ccc3nc(NC(=O)Nc4cccs4)sc3c2s1 | i
CCOc1ccc(-c2cc(C(=O)NCc3ccc(C)cc3)no2)cc1 | i
COc1ccc(-c2cn[nH]c2-c2ccc(O)cc2O)cc1 | i

# Carrying on:
SMILES | GIRK2 act
COCC(C)(O)CNC(=O)c1cc(-c2ccc(F)cc2)nn1C (centres undefined) | i
Cc1ccc(S(=O)(=O)Nc2ccc(-n3nnn(C)c3=O)cc2)cc1 | i
Cn1cc(C(=O)Nc2nc3ccc(Cl)cc3s2)nn1 | i
COC(=O)C1CCN(C(=O)c2csc(Nc3ncccn3)n2)CC1 | i
COCCCn1c(C(=O)Nc2ccccc2C(N)=O)cc2c(=O)n3ccccc3nc21 | i
O=C(CSc1nnnn1-c1ccccc1)Nc1ccc(-c2nc3ccccc3s2)cc1 | i
COCCn1c(-n2nc(C)cc2C)nc2c1c(=O)n(CCCc1ccccc1)c(=O)n2C | i
COc1ccc(-c2cc3c(SCC(=O)NCc4cccc(OC)c4)nccn3n2)cc1 | i
C=C(C)Cn1c(=O)c2c(nc3n(-c4ccc(C(N)=O)cc4)c(C)c(C)n23)n(C)c1=O | i
O=C(CSc1nnc(-c2cccnc2)o1)Nc1ccc2c(c1)OCO2 | i
CCOc1ccc(C(=O)N2CCC3(CC2)CC(=O)c2ccccc2O3)cc1 | i
Cc1nc(C)c(-c2nnc(NC(=O)c3cc4ccccc4oc3=O)o2)s1 | i
COc1ccc(F)cc1S(=O)(=O)N1CCCCCC1 | i
COc1c(S(=O)(=O)NCCN2CCOCC2)ccc(Cl)c1Cl | i
CCCCCCCCCCCSCC(=O)O | i
COc1cc(C)ccc1OC(C)C(=O)NCc1sc(-c2cccs2)nc1C (centres undefined) | i
O=C(CCc1nnc2c(N3CCCCC3)nc3ccccc3n12)NCc1ccc(Br)cc1 | i
COc1cccc(NC(=O)Nc2ccc(Nc3ccc(-n4nc(C)c(C)c4C)nn3)cc2)c1 | i
COc1cccc(N2CC(C)Cn3c2nc2c3c(=O)n(CCCO)c(=O)n2C)c1 (centres undefined) | i
COc1cccc(-c2c[nH]c3c(N/N=C\c4ccncc4)ncnc23)c1 | i
COc1cc(OC)cc(-c2noc(C3CCN(S(=O)(=O)c4ccc(C)cc4)CC3)n2)c1 | i
O=C(Nc1ccc(Cl)c(C(F)(F)F)c1)c1ccc2nnsc2c1 | i
C=CCSc1nnc(-c2ccc(S(C)(=O)=O)cc2)o1 | i
COc1ccc(N2C(=O)C3N=NN(CC(=O)Nc4ccc(OC)c(Cl)c4)C3C2=O)cc1 (centres undefined) | i
O=S(=O)(c1cccs1)N1CC(c2nc(-c3ccccn3)no2)C1 | i

# Laid out differently: entries from further up.
GIRK2 act	structure
i	COCC(C)(O)CNC(=O)c1cc(-c2ccc(F)cc2)nn1C (centres undefined)
i	Cc1ccc(S(=O)(=O)Nc2ccc(-n3nnn(C)c3=O)cc2)cc1

# (continued)
SMILES | GIRK2 act
COc1ccc(C2C(C(=O)Nc3ccccc3C)=C(C)Nc3nc(C)nn32)cc1 (centres undefined) | i
COCCN1N=C(C)C(C)n2c1nc1c2c(=O)n(Cc2ccccc2)c(=O)n1C (centres undefined) | i
O=C1NC2(CCCCC2)NC2=C1CCC2 | i
O=C(NCC1(c2ccccc2)CCOCC1)Nc1ccccc1Cl | i
CCCCCCn1c(=O)c2c(nc3n(-c4ccc(S(N)(=O)=O)cc4)c(C)cn23)n(C)c1=O | i
Cc1ccc(-c2noc(-c3cccn(CC(=O)Nc4ccc(C)c(Cl)c4)c3=O)n2)cc1 | i
COc1cc(OC)cc(N2N=NC3C(=O)N(c4ccc(C)c(F)c4)C(=O)C32)c1 (centres undefined) | i
CC(C)=CCC/C(C)=C/CC/C(C)=C/Cc1c(O)cc2c(c1O)CN(C(CCC(=O)O)C(=O)O)C2=O (centres undefined) | i
COc1ccc(OC)c(-c2cc(C(=O)N3CCN(C(=O)C4CC4c4cccs4)CC3)[nH]n2)c1 (centres undefined) | i
COc1ccc(CCNC(=O)NCCN2CCN(c3ccccc3F)CC2)cc1 | i
Cc1ccc(NC(=O)N2CC(c3nc(-c4cccnc4)no3)C2)cc1C | i
COc1ccccc1OCC#CCNC(=O)Cc1ccccc1Cl | i
COc1ccc(C)cc1S(=O)(=O)NCC(c1ccc(F)cc1)N1CCOCC1 (centres undefined) | i
COc1ccccc1NC(=O)CSc1nnc(-c2cccnc2)o1 | i
CCCCN1C(=O)c2cccc3c(NC(=O)C4CCN(S(C)(=O)=O)CC4)ccc1c23 | i
O=C(CSc1cc(-c2ccc(F)cc2)ncn1)Nc1nccs1 | i
Cc1cc(C)nc(NC(=O)c2ccc(N3C(=O)CCC3=O)cc2)n1 | i
Cc1cn2c3c(=O)n(Cc4cccc(Cl)c4)c(=O)n(C)c3nc2n1-c1ccc(S(N)(=O)=O)cc1 | i
Cc1ccc(S(=O)(=O)c2cn(C)c3cc(N4CCCC4)c(F)cc3c2=O)cc1 | i
c1ccc2c(CCNc3nc(N4CCCC4)c4n[nH]nc4n3)c[nH]c2c1 | i
O=C(NC1CCN(c2ccc(-c3ccccc3F)nn2)C1)c1cccs1 (centres undefined) | i
COc1ccc(/C=C2\Oc3cc(OC(=O)C(C)(C)C)ccc3C2=O)c(OC)c1OC | i
Fc1ccc(-c2nnc(Cc3nc(-c4ccc(Br)cc4)no3)o2)cc1 | i
COc1ccc(OCc2noc(CNC(=O)Cn3cccn3)n2)cc1 | i
CC(=O)c1cccc(NC(=O)Cn2cccc(-c3nc(-c4ccc(C)cc4)no3)c2=O)c1 | i
N#C/C(=C\Nc1ccc2c(c1)OCCO2)c1nc2ccccc2[nH]1 | i
O=C(CN1C(=O)c2ccccc2C1=O)N1CCOC2(CCOCC2)C1 | i
